# FGF22 binding = binders of human FGF22 protein, primary screen, FGF22 synaptogenesis inhibitor project, biophysical, thermal shift, single point. recombinant FGF22 thermal shift, SYPRO orange fluorescence; percent of sucrose octasulfate shift, DMSO zero. calls only at 9.99 µM. 340,000 tested, 1.5% active. AID 651658, 2012;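 active means melting point raised past a set limit in the mean and every replicate; three in four hits are not shown here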
# Target sequence (Q9HCT0 whole entry, looked up): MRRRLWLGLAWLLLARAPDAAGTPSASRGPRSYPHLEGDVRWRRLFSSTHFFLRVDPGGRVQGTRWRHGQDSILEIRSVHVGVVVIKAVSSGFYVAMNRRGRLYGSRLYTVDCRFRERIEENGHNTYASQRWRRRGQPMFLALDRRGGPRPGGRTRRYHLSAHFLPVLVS
# AF4-AF9 inh = inhibitors of AF4 peptide binding to AF9, primary screen, biochemical, AlphaScreen, biotin-AF4 peptide, FLAG-AF9, single point; 350,000 tested, 0.47% active; inhibition, % at 10 µM;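 active means every replicate reaching a set inhibition limit, whatever the replicate mean, cut at about 25% in these data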;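 further: 0% = plate neutral control median and 100% = total signal loss; the record names both 10 and 1 µM as test concentration; the first replicate is given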
# Target sequence (P42568 whole entry, looked up): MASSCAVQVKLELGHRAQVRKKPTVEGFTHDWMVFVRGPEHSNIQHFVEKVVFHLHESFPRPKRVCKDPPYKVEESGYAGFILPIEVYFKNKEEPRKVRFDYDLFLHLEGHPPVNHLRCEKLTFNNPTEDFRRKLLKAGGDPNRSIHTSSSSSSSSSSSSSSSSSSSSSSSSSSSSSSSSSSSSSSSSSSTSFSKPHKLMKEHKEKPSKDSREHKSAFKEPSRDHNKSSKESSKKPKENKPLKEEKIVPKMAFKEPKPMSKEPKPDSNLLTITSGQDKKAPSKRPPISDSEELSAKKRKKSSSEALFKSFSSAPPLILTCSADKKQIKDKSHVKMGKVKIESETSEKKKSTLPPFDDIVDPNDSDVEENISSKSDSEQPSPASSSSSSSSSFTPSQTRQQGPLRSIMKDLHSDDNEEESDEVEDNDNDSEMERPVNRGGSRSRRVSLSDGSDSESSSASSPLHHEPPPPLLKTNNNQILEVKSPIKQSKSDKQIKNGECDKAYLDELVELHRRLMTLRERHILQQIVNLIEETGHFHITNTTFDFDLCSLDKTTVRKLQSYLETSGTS
# rRNA inh HTS = reduced GFP signal of wild-type E. coli, primary screen, bacterial rRNA inhibitor project, GFP/RFP fluorescence, OD600, single point | E. coli WT GFP vs humanized-ribosome RFP mutants, 24 h; hits give low values; DMSO median 0, no signal -100 | GFP signal change (wild-type ribosome), % (test concentration not listed) | 350,000 tested, 1.6% active | AID 720706, 2013;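 active means significant combined selectivity score with lowered wild-type GFP, culture density cut under 30%, mutant RFP and density less affected; inactive means any of these conditions unmet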; further: one replicate is shown; some compounds called inactive have numbers as strong as hits
# rRNA inh HTS OD600 = further read-out of rRNA inh HTS, marked with its call; OD600 change, %; measured here: OD600 growth;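 optical density of the mix in the first replicate; 0 = DMSO median and -100 = no signal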
# rRNA inh HTS RFP = second read-out of rRNA inh HTS, no call of its own (marks repeat the call); RFP signal change, %; measured here: RFP humanized mutant strains;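 first replicate; 0 = DMSO median and -100 = no signal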
# An asterisk follows results filed as active; i = inactive; + = active, no number; & = joins results of further samples. A portion of the library (hit frequency here may not be typical).
no.	FGF22 binding	AF4-AF9 inh	rRNA inh HTS RFP	rRNA inh HTS	rRNA inh HTS OD600	Structure
1	i	0.4	4.4	-6	-32	COC(=O)[C@]12CCCCC=C1N(Cc1ccc(Cl)cc1Cl)C(=O)[C@H](CC(=O)N1CCCC1)C2
2	i	-12	1.8	6	-2	CN1CCN(C(=O)C[C@H]2CC[C@H]3[C@H](COc4ccc(NC(=O)C5CCCCC5)cc4C(=O)N3C)O2)CC1
3	i	-1.1	0.0	1	6	Cc1noc(C)c1NC(=O)N(C)C[C@H]1Oc2ccc(NC(=O)Nc3ccccc3)cc2C(=O)N([C@@H](C)CO)C[C@@H]1C
4	i	-12	-2.2	0	-1	CO[C@@H]1CN(C)C(=O)c2cc(NS(=O)(=O)c3ccccc3)ccc2OC[C@@H](C)N(C(=O)NC(C)C)C[C@H]1C
5	i	12	-0.5	-1	-2	C[C@@H]1CN([C@H](C)CO)C(=O)c2cccc(NS(=O)(=O)c3ccccc3)c2O[C@@H]1CN(C)Cc1ccc2c(c1)OCO2
6	i	-0.2	-3.3	3	5	CCS(=O)(=O)Nc1ccc2c(c1)C(=O)N(C)[C@@H]1CC[C@@H](CC(=O)N3CCOCC3)O[C@@H]1CO2
7	i	-1.3	-2.2	5	4	CNC[C@@H]1OCCCC[C@@H](C)Oc2ccc(NC(=O)Nc3ccc(F)cc3)cc2C(=O)N([C@H](C)CO)C[C@@H]1C
8	i	-0.3	-0.5	0	-3	N#C[C@@H]1[C@H](c2ccccc2-c2ccccc2)[C@H](CO)N1C(=O)Cc1ccncc1
9	i	0.2	-0.4	-2	1	O=C(NCC1CC1)[C@@H]1[C@@H](CO)[C@@H]2Cn3c(ccc(-c4ccccc4)c3=O)[C@H]1N2C(=O)C1CC1
10	i	0.1	3.3	-4	8	C[C@H](CO)N1C[C@H](C)[C@H](CN(C)C(=O)Nc2ccc(C(F)(F)F)cc2)Oc2ccc(NC(=O)Cc3cn(C)c4ccccc34)cc2C1=O
11	i	-3.3	3.4	1	-1	Cc1noc(C)c1NC(=O)N(C)C[C@H]1OCc2ccccc2-c2c(n(C)c3ccccc23)C(=O)N([C@@H](C)CO)C[C@H]1C
12	i	0.2	0.1	-5	0	CCC(=O)N(C)C[C@H]1Oc2cc(C#Cc3ccccn3)ccc2S(=O)(=O)N([C@H](C)CO)C[C@H]1C
13	i	-2.1	0.3	-2	5	COc1ccc(S(=O)(=O)N(C)C[C@@H]2Oc3ccc(NC(=O)Nc4c(C)noc4C)cc3C(=O)N([C@@H](C)CO)C[C@@H]2C)cc1
14	i	-1.8	-1.0	15	21	CCOC(=O)C1=C(C(=O)OCC)C2N(Cc3ccc(C#N)cc3)c3ccccc3[C@@]23C[C@@H](C(=O)OC)N(S(=O)(=O)c2c(C)noc2C)C3=N1 (stereo not given in full)
15	i	-1.5	-0.6*	-21*	-14*	COC(=O)[C@]1(Sc2ccc(C)cc2)CC(=O)N[C@@H]1c1ccccc1
16	i	-1.6	0.8	6	18	CC(C)CC1OC(C)Cc2[nH][nH]c(=O)c21 (stereo not given)
17	i	-2.7	3.0	19	20	Cc1cc(Cl)ccc1NC(=O)/N=C1/NC(=O)CS1
18	i	-16	-3.2	3	5	Cc1noc(C)c1NC(=O)N(C)C[C@H]1Oc2c(cccc2N(C)C)C(=O)N([C@@H](C)CO)C[C@@H]1C
19	i	-1.4	2.9	5	-9	O=C(CCNS(=O)(=O)c1ccccc1)NCCCc1ccccc1
20	i	11	1.2	3	2	C[C@@H]1CCCCO[C@H](CN(C)CC2CC2)[C@H](C)CN([C@@H](C)CO)C(=O)c2cc(NC(=O)NC3CCCCC3)ccc2O1

# 9 entries from above, ordered by heavy-atom count, ascending:
no.	FGF22 binding	AF4-AF9 inh	rRNA inh HTS RFP	rRNA inh HTS	rRNA inh HTS OD600	Structure
16	i	-1.6	0.8	6	18	CC(C)CC1OC(C)Cc2[nH][nH]c(=O)c21 (stereo not given)
15	i	-1.5	-0.6*	-21*	-14*	COC(=O)[C@]1(Sc2ccc(C)cc2)CC(=O)N[C@@H]1c1ccccc1
8	i	-0.3	-0.5	0	-3	N#C[C@@H]1[C@H](c2ccccc2-c2ccccc2)[C@H](CO)N1C(=O)Cc1ccncc1
9	i	0.2	-0.4	-2	1	O=C(NCC1CC1)[C@@H]1[C@@H](CO)[C@@H]2Cn3c(ccc(-c4ccccc4)c3=O)[C@H]1N2C(=O)C1CC1
18	i	-16	-3.2	3	5	Cc1noc(C)c1NC(=O)N(C)C[C@H]1Oc2c(cccc2N(C)C)C(=O)N([C@@H](C)CO)C[C@@H]1C
7	i	-1.3	-2.2	5	4	CNC[C@@H]1OCCCC[C@@H](C)Oc2ccc(NC(=O)Nc3ccc(F)cc3)cc2C(=O)N([C@H](C)CO)C[C@@H]1C
3	i	-1.1	0.0	1	6	Cc1noc(C)c1NC(=O)N(C)C[C@H]1Oc2ccc(NC(=O)Nc3ccccc3)cc2C(=O)N([C@@H](C)CO)C[C@@H]1C
11	i	-3.3	3.4	1	-1	Cc1noc(C)c1NC(=O)N(C)C[C@H]1OCc2ccccc2-c2c(n(C)c3ccccc23)C(=O)N([C@@H](C)CO)C[C@H]1C
10	i	0.1	3.3	-4	8	C[C@H](CO)N1C[C@H](C)[C@H](CN(C)C(=O)Nc2ccc(C(F)(F)F)cc2)Oc2ccc(NC(=O)Cc3cn(C)c4ccccc34)cc2C1=O

# (listing goes on)
no.	FGF22 binding	AF4-AF9 inh	rRNA inh HTS RFP	rRNA inh HTS	rRNA inh HTS OD600	Structure
21	i	1.2&-2.1	-1.7&3.3	1&0	-5&0	Cc1ccc(S(=O)(=O)Nc2ccc3c(c2)C(=O)N([C@@H](C)CO)C[C@@H](C)[C@@H](CN(C)S(=O)(=O)c2ccccc2)OCCCC[C@H](C)O3)cc1
22	i	4.4	-0.1	3	12	CCC(=O)N1[C@H](CNC(=O)CN(C)C)[C@H](c2ccc(C3=CCCC3)cc2)[C@@H]1CO
23	i	-0.7	-0.1	0	2	Cc1ccc(S(=O)(=O)Nc2cccc3c2O[C@@H](CN(C)Cc2ccc(C(=O)O)cc2)[C@@H](C)CN([C@@H](C)CO)C3=O)cc1
24	i	5.9	-7.6	-50	-72	CCCCc1c(-c2ccccc2OC)ncn1Cc1ccc(C(C)(C)C)cc1
25	i	-1.2	-1.2	3	2	O=C(C[C@@H]1C[C@H]2c3cc(NC(=O)NC4CCCC4)ccc3O[C@H]2[C@@H](CO)O1)NCc1ccc(Oc2ccccc2)cc1
26	i	2.6	0.6	5	14	O=C(C[C@@H]1CC[C@@H](NC(=O)CC2CC2)[C@@H](CO)O1)NCC(F)(F)F
27	i	0.8	-0.1	10	13	CCOC(=O)C1(C)CCCN1C(=O)c1cc(F)ccc1C (stereo not given)
28	i	1.0	-3.0	0	4	C[C@@H]1CCCCO[C@@H](CN(C)S(=O)(=O)c2ccccc2)[C@@H](C)CN([C@H](C)CO)C(=O)c2cc(NC(=O)Cc3ccccc3)ccc2O1
29	i	3.2	0.6	0	3	O=C(CN1CCOCC1)N[C@@H]1CC[C@@H](CCNC(=O)Nc2cc(F)ccc2F)O[C@H]1CO
30	i	0.5	0.0	-6	4	C[C@@H]1CN([C@@H](C)CO)S(=O)(=O)c2ccc(C#Cc3ccc(F)cc3)cc2O[C@@H]1CN(C)C(=O)NC1CCCCC1
31	i	-7.7	3.0	-3	-1	C[C@H](CO)N1C[C@H](C)[C@@H](CN(C)C(=O)C2CCCCC2)OCCCC[C@H](C)Oc2ccc(NC(=O)c3ccncc3)cc2C1=O
32	i	6.9	5.8&7.9	-5&-4	-7&-4	CO[C@H]1CN(C)C(=O)c2ccc(NC(=O)Nc3cccc(Cl)c3)cc2OC[C@H](C)NC[C@H]1C
33	+	3.7	5.6	1	22	C[C@H](CO)N1C[C@H](C)[C@@H](CN(C)C(=O)Nc2cccc3ccccc23)Oc2c(NC(=O)C3CC3)cccc2C1=O
34	i	1.0	1.6	-2	-6	CO[C@H]1CN(C)C(=O)c2cc(NC(C)=O)ccc2OC[C@H](C)N(Cc2ccc(F)cc2)C[C@H]1C
35	i	-4.1	3.3	1	-4	CO[C@H]1CN(C)C(=O)c2ccc(NS(=O)(=O)c3cccc(Cl)c3)cc2OC[C@@H](C)NC[C@@H]1C
36	i	7.7	3.2	-1	3	C[C@@H]1CCCCO[C@H](CN(C)C)[C@H](C)CN([C@H](C)CO)C(=O)c2cc(NC(=O)Nc3cccc4ccccc34)ccc2O1
37	i	-2.4	-2.5	0	-7	C[C@H]1CN([C@@H](C)CO)C(=O)c2cc(-c3ccc(C#N)cc3)cnc2O[C@H]1CN(C)Cc1ccncc1
38	i	-4.0	1.7	1	-10	CCOC(=O)[C@]12CCC=C1N(Cc1ccc(Cl)cc1Cl)C(=O)[C@H](CC(=O)N1CCOCC1)C2
39	i	-6.5	-1.9	-1	5	C[C@@H]1CN([C@H](C)CO)C(=O)Cc2cc(NC(=O)c3ccncc3)ccc2O[C@@H]1CN(C)Cc1ccc(C(=O)O)cc1
40	i	-2.9	-1.2	10	16	C[C@H](CO)N1C[C@H](C)[C@@H](CN(C)Cc2ccccc2C(=O)O)Oc2ncc(C3=CCCC3)cc2C1=O
41	i	-4.0	-2.9	0	3	C[C@H]1CN([C@@H](C)CO)S(=O)(=O)c2ccc(-c3ccc(C(=O)N(C)C)cc3)cc2O[C@H]1CN(C)C
42	i	-1.6	-0.6	-2	-3	Cc1noc(C)c1NC(=O)N(C)C[C@H]1Oc2ccc(NC(=O)C3CC3)cc2C(=O)N([C@@H](C)CO)C[C@H]1C
43	i	-0.7	1.5	0	5	CCNC(=O)Nc1ccc2c(c1)C(=O)N(C)[C@@H]1CC[C@H](CC(=O)NCc3ccccc3F)O[C@H]1CO2
44	i	2.0	-0.3	8	6	O=C1CC(N2CCN(S(=O)(=O)c3ccccc3F)CC2)C(=O)N1c1ccccc1F (stereo not given)
45	i	-2.4	-0.6	1	8	C[C@H](CO)N1C[C@H](C)[C@H](CN(C)Cc2ccc(C(=O)O)cc2)Oc2c(NS(C)(=O)=O)cccc2C1=O
46	i	1.2	1.4	-1	-1	CCC(=O)N1CC2(C1)CN(Cc1ccccc1Cl)[C@@H](CO)c1[nH]c3cc(OC)ccc3c12
47	i	1.1	0.4	-4	-21	C[C@@H]1CN([C@@H](C)CO)S(=O)(=O)c2ccc(C#CC3CC3)cc2O[C@H]1CN(C)S(C)(=O)=O
48	i	-3.2	-0.6	3	8	C[C@H](CO)N1C[C@H](C)[C@H](CN(C)S(=O)(=O)c2cn(C)cn2)Oc2ccc(N(C)C)cc2CC1=O
49	i	-2.1	-2.7	6	13	CN(C)CCCNC(=O)C[C@H]1CC[C@H]2[C@H](COc3ccc(NS(C)(=O)=O)cc3C(=O)N2C)O1
50	i	0.0	6.3	-2	3	CC(NC(=O)c1cccc(S(=O)(=O)N2CCN(Cc3ccccc3)CC2)c1)c1ccc(Cl)cc1 (stereo not given)
51	i	-0.6	-2.7	4	7	CC(C(=O)O)n1cc(C#N)c(=O)[nH]c1=O (stereo not given)
52	i	-0.8	-1.1	2	2	CO[C@@H]1CN(C)C(=O)c2cc(NC(=O)Nc3ccccc3F)ccc2OC[C@@H](C)N(Cc2ccccc2C(=O)O)C[C@@H]1C
53	i	1.3	1.4	0	2	O=C(C1CCC1)N1C[C@@H]2[C@H](c3ccccc31)[C@@H](CO)N2C(=O)Nc1cccc(F)c1
54	i	-1.9	0.7	-6	-8	COc1ccc(NC(=O)Nc2ccc3c(c2)[C@H]2C[C@@H](CC(=O)NCc4ccccn4)O[C@H](CO)[C@H]2O3)cc1
55	i	0.3	-0.5	3	5	COCC(=O)Nc1ccc2c(c1)OC[C@@H](C)N(C(C)=O)C[C@@H](C)[C@H](OC)CN(C)C2=O
56	i	9.9	-17	-58	-77	CCc1nc2ccc(C(=O)NC3CCN(Cc4ccccc4)CC3)cn2c1N(C)Cc1cc2ccccc2s1
57	i	-0.7	-2.7	3	3	C[C@H]1CN([C@@H](C)CO)C(=O)c2cccc(NS(=O)(=O)c3ccccc3)c2O[C@@H]1CN(C)C(=O)Nc1ccc(F)cc1
58	i	6.7	3.2	-1	-5	C[C@@H]1CN([C@@H](C)CO)C(=O)Cc2cc(NC(=O)Nc3ccc4c(c3)OCO4)ccc2O[C@@H]1CN(C)CC1CCCCC1
59	i	-0.3	-1.1	-5	-9	O=C(Cc1ccc2c(c1)OCCO2)Nc1cc(C(F)(F)F)ccc1N1CCOCC1
60	i	2.4	0.6	-12	-35	C[C@H]1CN([C@@H](C)CO)C(=O)c2cccc(NC(=O)C3CCCCC3)c2O[C@H]1CN(C)Cc1ccc(Cl)c(Cl)c1
61	i	-1.9	7.2	3	-7	O=C(NN=Cc1ccccc1Cl)C(=O)Nc1cccc(C(F)(F)F)c1
62	i	3.9	1.7	8	10	C#CCOCCOCCOCCNc1nc(N2CCN(C(=O)Cn3cc(CC(C)O)nn3)CC2)nc(N2CCN(C(=O)[C@H]([C@@H](C)CC)n3cc(CCCCN)nn3)CC2)n1 (stereo not given in full)
